Screening data as filed in PubChem.
rRNA inh HTS – inhibits bacterial ribosomal RNA function over humanized ribosomes; E. coli WT GFP vs humanized-ribosome RFP mutants, fluorescence, 24 h; active compounds read low; DMSO median 0, no signal -100; AID 720706; GFP signal change (wild-type ribosome), % (no concentration beside the values); 1.6% of 350,000 active;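 active = significant combined selectivity score with lowered wild-type GFP, culture density cut under 30%, mutant RFP and density less affected; inactive = any of these conditions unmet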; also: one replicate is shown; some compounds called inactive have numbers as strong as hits
AF4-AF9 inh – inhibitors of human MLL-AF4/AF9 interaction | AlphaScreen, biotin-AF4 peptide binding to FLAG-AF9 | inhibition, % at 10 µM | 0.47% of 350,000 active | P42568;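 active = every replicate reaching a set inhibition limit, whatever the replicate mean, cut at about 25% in these data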;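 also: 0% = plate neutral control median and 100% = total signal loss; the record names both 10 and 1 µM as test concentration; the first replicate is given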
Target sequence (P42568 whole entry, looked up): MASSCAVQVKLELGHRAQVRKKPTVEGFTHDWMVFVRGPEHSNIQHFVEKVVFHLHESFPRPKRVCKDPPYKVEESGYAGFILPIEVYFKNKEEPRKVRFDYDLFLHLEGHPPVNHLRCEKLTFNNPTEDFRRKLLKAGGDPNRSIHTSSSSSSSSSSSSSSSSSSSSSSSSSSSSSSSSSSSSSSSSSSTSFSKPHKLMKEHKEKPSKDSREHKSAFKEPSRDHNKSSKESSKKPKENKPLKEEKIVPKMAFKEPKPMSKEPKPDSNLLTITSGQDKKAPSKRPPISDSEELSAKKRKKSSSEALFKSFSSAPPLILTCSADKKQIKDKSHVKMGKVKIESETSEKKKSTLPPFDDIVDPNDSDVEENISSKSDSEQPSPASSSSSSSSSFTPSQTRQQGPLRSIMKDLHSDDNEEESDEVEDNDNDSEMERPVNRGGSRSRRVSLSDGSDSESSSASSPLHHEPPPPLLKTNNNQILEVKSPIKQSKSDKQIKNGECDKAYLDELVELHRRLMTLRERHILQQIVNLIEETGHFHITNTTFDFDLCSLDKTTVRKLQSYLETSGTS
rRNA inh HTS OD600 – further read-out of rRNA inh HTS, marked with its call; OD600 change, %; measured here: OD600 growth;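 optical density of the mix in the first replicate; 0 = DMSO median and -100 = no signal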
rRNA inh HTS RFP – recorded beside rRNA inh HTS, whose call it bears; RFP signal change, %; measured here: RFP humanized mutant strains;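 first replicate; 0 = DMSO median and -100 = no signal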
* marks the source's active call; other numbers are inactive results; & = joins results of further samples. Some of the compounds tested, so the mix of outcomes need not match the whole.

Below each compound – rRNA inh HTS | rRNA inh HTS OD600 | rRNA inh HTS RFP | AF4-AF9 inh
C[C@@H]1CN([C@@H](C)CO)S(=O)(=O)c2ccc(C3=CCCC3)cc2O[C@@H]1CN(C)Cc1cccnc1
 : -20 | -50 | 0.6 | 1.5
O=C(c1ccccc1)c1ccc(O)c(O)c1O
 : 13 | -3 | 4.0 | -1.4
CCc1csc(N2[C@H](CO)[C@H](c3ccc(-c4cccc(F)c4)cc3)[C@@H]2C#N)n1
 : -11 | -34 | 18 | -1.5
C[C@@H]1CN([C@H](C)CO)S(=O)(=O)c2ccc(-c3ccncc3)cc2O[C@H]1CN(C)Cc1cccnc1
 : -6 | -13 | -2.5 | -0.5
CN(C)CC#Cc1ccc([C@@H]2[C@H](CO)N3CCCCN(C(=O)NC4CCCC4)C[C@@H]23)cc1
 : 6 | 4 | 0.0 | 2.7
CO[C@@H]1CN(C)C(=O)c2ccc(NC(=O)c3cnccn3)cc2OC[C@@H](C)N(C(C)=O)C[C@@H]1C
 : 3 | -3 | -4.0 | -0.9
O=C(Nc1ccc2c(c1)[C@@H]1C[C@H](CC(=O)N3CCc4ccccc4C3)O[C@H](CO)[C@@H]1O2)c1ccc2c(c1)OCO2
 : -5 | -20 | 2.3 | -5.4
Cc1[nH]c2ccccc2c1C(=O)C(=O)NCc1nnnn1-c1cccc(F)c1
 : 4 | 3 | 0.3 | -1.5
O=C(C[C@H]1CC[C@H](NC(=O)Nc2ccccc2F)[C@@H](CO)O1)NCc1ccc(-c2ccccc2)cc1
 : -2&3 | 3&17 | 0.2&-3.6 | 0.0
CN1C(=O)c2cc(NC(=O)Nc3cccc(Cl)c3)ccc2OC[C@@H]2O[C@@H](CC(=O)NCCc3ccncc3)CC[C@H]21
 : 0 | -7 | 3.6 | 3.2

(list continues)
Below each compound – rRNA inh HTS | rRNA inh HTS OD600 | rRNA inh HTS RFP | AF4-AF9 inh
CO[C@H]1CN(C)C(=O)c2ccc(NC(C)=O)cc2OC[C@H](C)N(C(=O)C2CCOCC2)C[C@@H]1C
 : 0 | 2 | 0.3 | -1.5
O=C(NC(c1ccc(F)cc1)c1ccc2ccccc2n1)C1CCN(CCOc2ccc(F)cc2)CC1 (configuration not stated)
 : -39 | -75 | 39 | -16
O=C(Nc1ccccc1F)N[C@H]1CC[C@@H](CCNS(=O)(=O)c2ccc(F)cc2)O[C@H]1CO
 : 1 | 4 | -1.8 | -1.0
CCS(=O)(=O)Nc1ccc2c(c1)C(=O)N(C)[C@H]1CC[C@@H](CC(=O)N3CCOCC3)O[C@H]1CO2
 : 2 | 10 | -2.0 | -0.4
C[C@H]1CN([C@@H](C)CO)C(=O)Cc2cc(NC(=O)C3CCCCC3)ccc2O[C@H]1CN(C)Cc1ccc(C(F)(F)F)cc1
 : -7 | -6 | 1.0 | -2.0
CO[C@H]1CN(C)C(=O)c2cc(NC(=O)c3cnccn3)ccc2OC[C@@H](C)N(CCc2ccccc2)C[C@H]1C
 : 0 | 4 | -0.5 | 1.3
C[C@H](CO)N1C[C@H](C)[C@@H](CN(C)C(=O)CC2CC2)Oc2cc(C#C[C@@H](C)O)ccc2S1(=O)=O
 : 1 | 8 | -2.4 | 1.3
COC(=O)C[C@H]1CC[C@H]2[C@H](COc3ccc(NC(=O)Nc4cccc(F)c4)cc3C(=O)N2C)O1
 : -3 | -7 | 0.1 | 1.3
COCC#Cc1ccc2c(c1)O[C@H](CN(C)S(=O)(=O)c1ccc(C)cc1)[C@H](C)CN([C@H](C)CO)S2(=O)=O
 : 1 | -12 | 2.2 | -0.5
CN1C(=O)c2cc(NS(=O)(=O)c3ccc(F)cc3)ccc2OC[C@H]2O[C@H](CC(=O)O)CC[C@@H]21
 : 4 | 10 | 2.7 | -0.9

Seven entries from above, arranged by SMILES length, high to low.
Below each compound – rRNA inh HTS | rRNA inh HTS OD600 | rRNA inh HTS RFP | AF4-AF9 inh
C[C@H]1CN([C@@H](C)CO)C(=O)Cc2cc(NC(=O)C3CCCCC3)ccc2O[C@H]1CN(C)Cc1ccc(C(F)(F)F)cc1
 : -7 | -6 | 1.0 | -2.0
COCC#Cc1ccc2c(c1)O[C@H](CN(C)S(=O)(=O)c1ccc(C)cc1)[C@H](C)CN([C@H](C)CO)S2(=O)=O
 : 1 | -12 | 2.2 | -0.5
C[C@H](CO)N1C[C@H](C)[C@@H](CN(C)C(=O)CC2CC2)Oc2cc(C#C[C@@H](C)O)ccc2S1(=O)=O
 : 1 | 8 | -2.4 | 1.3
CCS(=O)(=O)Nc1ccc2c(c1)C(=O)N(C)[C@H]1CC[C@@H](CC(=O)N3CCOCC3)O[C@H]1CO2
 : 2 | 10 | -2.0 | -0.4
CO[C@H]1CN(C)C(=O)c2ccc(NC(C)=O)cc2OC[C@H](C)N(C(=O)C2CCOCC2)C[C@@H]1C
 : 0 | 2 | 0.3 | -1.5
O=C(Nc1ccccc1F)N[C@H]1CC[C@@H](CCNS(=O)(=O)c2ccc(F)cc2)O[C@H]1CO
 : 1 | 4 | -1.8 | -1.0
O=C(NC(c1ccc(F)cc1)c1ccc2ccccc2n1)C1CCN(CCOc2ccc(F)cc2)CC1 (configuration not stated)
 : -39 | -75 | 39 | -16

Continuation.
Below each compound – rRNA inh HTS | rRNA inh HTS OD600 | rRNA inh HTS RFP | AF4-AF9 inh
CC(=O)NC(c1ccccc1)c1nc(-c2ccccc2C)cs1 (configuration not stated)
 : 6 | 1 | 0.5 | -1.5
Cc1noc(C)c1S(=O)(=O)Nc1cccc2c1O[C@H](CN(C)C(=O)NC1CCCCC1)[C@H](C)CN([C@@H](C)CO)C2=O
 : 4 | 7 | 1.4 | -1.9
COCC(=O)Nc1ccc2c(c1)C(=O)N(C)C[C@H](OC)[C@H](C)CN(C(=O)C1CCCC1)[C@H](C)CO2
 : 1 | -1 | -1.6 | 0.8
C[C@H]1CN([C@@H](C)CO)C(=O)c2cc(NC(=O)NC3CCCCC3)ccc2O[C@H]1CN(C)Cc1ccccc1
 : 1 | -2 | -1.1 | 33*
COc1cccc(CN(C)C[C@@H]2OCc3cn(nn3)CCCC(=O)N([C@H](C)CO)C[C@@H]2C)c1
 : 1 | 5 | 3.6 | -11
O=C(C[C@@H]1CC[C@H](NC(=O)NC2CCCCC2)[C@H](CO)O1)NCc1ccc(Cl)cc1
 : -3 | 6 | -1.9 | -0.9
Cc1ccc(S(=O)(=O)CCC(=O)Nc2cc(C)on2)cc1
 : 10 | 12 | -2.7 | -1.8
CCOC(=O)[C@]12CCCC=C1N(Cc1ccco1)C(=O)[C@H](CC(=O)NCCCN1CCCC1=O)C2
 : 14 | 20 | 0.9 | -1.0
C[C@H]1CN([C@@H](C)CO)C(=O)c2cccc(NS(=O)(=O)c3cccs3)c2O[C@@H]1CN(C)Cc1ccc(C(F)(F)F)cc1
 : -3 | 5 | 0.7 | 1.3
C[C@H](CO)N1C[C@H](C)[C@H](CN(C)C(=O)Nc2ccc3c(c2)OCO3)Oc2ccc(NS(C)(=O)=O)cc2C1=O
 : 1 | -3 | -0.2 | -6.4

More results
Below each compound – rRNA inh HTS | rRNA inh HTS OD600 | rRNA inh HTS RFP | AF4-AF9 inh
COCC#Cc1ccc([C@@H]2[C@H](CO)N3CCCCN(S(=O)(=O)c4ccccc4C)C[C@@H]23)cc1
 : 2 | -47 | 14 | -2.4
C[C@@H]1CCCCO[C@H](CN(C)C(=O)Cc2ccccc2)[C@@H](C)CN([C@H](C)CO)C(=O)c2cc(NC(=O)c3ccncc3)ccc2O1
 : -3 | 4 | 1.4 | -5.6
C[C@@H](NC(=O)[C@@H]1[C@@H](CO)[C@@H]2Cn3c(cccc3=O)[C@@H]2N1S(C)(=O)=O)c1ccccc1
 : 1 | 5 | -0.8 | -1.2
C[C@@H]1CCCCO[C@@H](CN(C)C(=O)Nc2ccc(C(F)(F)F)cc2)[C@@H](C)CN([C@H](C)CO)C(=O)c2cc(NC(=O)NC3CCCCC3)ccc2O1
 : 3 | -9 | -3.9 | -1.4
CC1(C(=O)NS(=O)(=O)c2ccccc2Cl)CCN1C(=O)C1(c2ccccc2)CCCC1 (configuration not stated)
 : -1 | 11 | 2.1 | -2.5
COc1ccc(S(=O)(=O)N(C)C[C@H]2Oc3ccc(NC(=O)CCCCCC(=O)Nc4ccccc4N)cc3C(=O)N([C@@H](C)CO)C[C@H]2C)cc1
 : -7 | -8 | -1.8 | -2.4
O=C(NCc1ccccc1)[C@@H]1[C@@H](CO)[C@@H]2Cn3c(ccc(-c4cccc(F)c4)c3=O)[C@H]1N2
 : 2 | 10 | -0.2 | 0.4
CO[C@H]1CN(C)C(=O)c2ccc(NS(=O)(=O)c3cn(C)cn3)cc2OC[C@@H](C)N(Cc2cccc(F)c2)C[C@H]1C
 : -2 | -7 | 1.2 | -1.0
Cc1ccccc1CN(C)C[C@H]1OCc2cnnn2CCCC(=O)N([C@@H](C)CO)C[C@H]1C
 : -2 | 4 | -0.3 | -0.2
CCCc1cn(CC[C@H]2CC[C@H](NC(=O)C3CCCC3)[C@H](CO)O2)nn1
 : 5 | 15 | -3.5 | -2.9

(cont.)
Short forms – A = rRNA inh HTS; B = rRNA inh HTS OD600; C = rRNA inh HTS RFP; D = AF4-AF9 inh
OC[C@@H]1CN(Cc2ccc3c(c2)OCO3)C[C@H](n2cnc3c(NC4CCCC4)ncnc32)O1
  A: -16 | B: -14 | C: 3.1 | D: -7.4
O=C(Cc1ccccc1)N1CC(=O)N2[C@H](CO)[C@@H](c3ccc(C#CCc4ccccc4)cc3)[C@H]2C1
  A: -3 | B: -49 | C: 23 | D: -0.5
Cc1cccc(C)c1-n1nnnc1-c1nc2cc3ccccc3cc2[nH]c1=O
  A: -11 | B: 1 | C: 6.3 | D: 0.5
COc1ccccc1S(=O)(=O)N(C)C[C@@H]1OCc2ccccc2-c2ccccc2C(=O)N([C@@H](C)CO)C[C@@H]1C
  A: 0 | B: 0 | C: 1.1 | D: 0.3
O=C(c1cccc(F)c1)N1CCCCN2[C@H](C1)[C@@H](c1ccc(-c3ccccc3)cc1)[C@@H]2CO
  A: -58 | B: -76 | C: -8.2 | D: -9.9
C[C@H](CO)N1C[C@H](C)[C@@H](CN(C)Cc2ccccc2)Oc2ccc(N(C)C)cc2C1=O
  A: 5 | B: 5 | C: -0.6 | D: -4.0
O=C(C[C@H]1C[C@@H]2c3cc(NC(=O)Nc4ccccc4)ccc3O[C@@H]2[C@@H](CO)O1)NCc1ccncc1
  A: -1 | B: -1 | C: -0.3 | D: 2.5
OCc1cccc(-c2cnc3c(Nc4cccc(OC(F)(F)C(F)F)c4)nccn23)c1
  A: -44 | B: -59 | C: -3.2 | D: -0.2
CCc1nc2ccc(C(=O)NC3CCN(Cc4ccccc4)CC3)cn2c1N(C)Cc1cccs1
  A: 4 | B: -37 | C: 43 | D: 11
O=C(Cc1ccccc1)N[C@H]1C=C[C@@H](CC(=O)N2CCOCC2)O[C@H]1CO
  A: 1 | B: 0 | C: -1.7 | D: 1.9
Cc1ccc(S(=O)(=O)N(C)C[C@@H]2Oc3ccc(NS(=O)(=O)c4ccc(F)cc4)cc3CC(=O)N([C@H](C)CO)C[C@H]2C)cc1
  A: -3 | B: -4 | C: -0.4 | D: -1.2
C[C@H](CO)N1C[C@H](C)[C@H](CN(C)S(=O)(=O)c2cn(C)cn2)Oc2cc(C#Cc3ccc(F)cc3)ccc2S1(=O)=O
  A: -3 | B: 0 | C: 0.9 | D: 2.0
O=C(C[C@@H]1CC[C@H](NC(=O)c2ccccn2)[C@@H](CO)O1)NCc1cc(F)cc(F)c1
  A: 0 | B: 1 | C: 0.1 | D: 1.0
CN(C)C(=O)C[C@H]1C[C@H]2c3cc(NC(=O)Nc4ccccc4F)ccc3O[C@H]2[C@@H](CO)O1
  A: -4 | B: -3 | C: -3.9 | D: -1.1
COc1ccc(S(=O)(=O)Nc2ccc3c(c2)C(=O)N([C@H](C)CO)C[C@@H](C)[C@@H](CN(C)Cc2ccc4c(c2)OCO4)OCCCC[C@@H](C)O3)cc1
  A: 7 | B: -10 | C: 6.0 | D: 12
C[C@@H]1CN([C@H](C)CO)C(=O)c2cccc(NC(=O)Nc3ccc(C(F)(F)F)cc3)c2O[C@H]1CN(C)C(=O)Nc1cccc2ccccc12
  A: 0 | B: 4 | C: 3.1 | D: 4.9
COc1ccc2c3c([nH]c2c1)[C@H](CO)N(C(=O)c1ccc(F)cc1)CC31CN(C(=O)NC(C)C)C1
  A: 2 | B: 6 | C: -2.7 | D: -19
CN(C)C(=O)c1cccc(-c2ccc3c(c2)[C@H]2[C@H](CCN2S(=O)(=O)c2cn(C)cn2)[C@H](CO)N3)c1
  A: 7 | B: 16 | C: -7.8 | D: -3.6
COc1ccc(C#Cc2cnc3c(c2)C(=O)N([C@H](C)CO)C[C@H](C)[C@H](CN(C)C(=O)CC2CC2)O3)cc1
  A: 0 | B: -6 | C: 3.7 | D: -3.4
O=C(NCCCN1CCC(Cc2ccccc2)CC1)c1ccc(CS(=O)c2ccccc2Cl)o1 (configuration not stated)
  A: 7 | B: 7 | C: 2.4 | D: 5.0
C[C@@H]1CCCCO[C@H](CN(C)C(=O)Nc2ccccc2)[C@@H](C)CN([C@H](C)CO)C(=O)c2cc(NC(=O)Nc3ccc(C(F)(F)F)cc3)ccc2O1
  A: 1 | B: 14 | C: 1.9 | D: -0.4
C[C@@H]1CN([C@H](C)CO)C(=O)Cc2cc(NC(=O)NC3CCCCC3)ccc2O[C@@H]1CN(C)C(=O)Nc1ccc(F)cc1
  A: 2 | B: 4 | C: -1.2 | D: -1.3
O=C(NC1CC1)c1cccc(-c2cncc3nccn23)c1
  A: 2 | B: 6 | C: -2.7 | D: -1.9
CCc1nc2c(OCc3ccccc3C(=O)OC)cccn2c1N(C)C(=O)CC(C)C
  A: -18 | B: -52 | C: 8.6 | D: 3.9
